Source: PubChem BioAssay (National Center for Advancing Translational Sciences (NCATS))
PINK1 expr mod = PINK1 expression modulation; 0.2% of 410,000 active; Potency, µM (doses to about 76.6 µM), without a hit: top-dose activation (PINK1 increase), usual class: activators; PINK1 immunofluorescence, high-content cytometry, 24 h; active = well fitted activation curve with a large enough effect; inconclusive = small, poorly fitted or top-dose-only effect; inactive = flat fitted curve, though single readings scatter; cell line not stated here;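 further: potency means the concentration at half of the fitted maximal effect; % of control where 0% means no effect; nearly all actives have a fitted effect of over 65% in size; a mitochondrial uncoupler was the plate control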
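Stable cell line, 250 cells/well, 12 h attachment; compounds pinned at 5 concentrations, 24 h; CCCP control. Fixed with nuclear dye, primary antibodies 12 h at 10 degrees C, secondary plus cell stain; laser-scanning cytometer read.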
TRPML1 ag = human mucolipin-1 channel agonism | Q9GZU1 | TRPML1-expressing cells, Ca2+ dye fluorescence, FDSS; host cell line not named in the record; reference of the full effect not given here | activation, % (no concentration beside the values) | 0.12% of 410,000 active | AID 624414; in the data active = activation above about 50%; inconclusive = about 30% to 50%; inactive = below about 30%; further: 0% is about no effect; the text of the record puts the active cut at 80%
Target sequence (Q9GZU1 whole entry, looked up): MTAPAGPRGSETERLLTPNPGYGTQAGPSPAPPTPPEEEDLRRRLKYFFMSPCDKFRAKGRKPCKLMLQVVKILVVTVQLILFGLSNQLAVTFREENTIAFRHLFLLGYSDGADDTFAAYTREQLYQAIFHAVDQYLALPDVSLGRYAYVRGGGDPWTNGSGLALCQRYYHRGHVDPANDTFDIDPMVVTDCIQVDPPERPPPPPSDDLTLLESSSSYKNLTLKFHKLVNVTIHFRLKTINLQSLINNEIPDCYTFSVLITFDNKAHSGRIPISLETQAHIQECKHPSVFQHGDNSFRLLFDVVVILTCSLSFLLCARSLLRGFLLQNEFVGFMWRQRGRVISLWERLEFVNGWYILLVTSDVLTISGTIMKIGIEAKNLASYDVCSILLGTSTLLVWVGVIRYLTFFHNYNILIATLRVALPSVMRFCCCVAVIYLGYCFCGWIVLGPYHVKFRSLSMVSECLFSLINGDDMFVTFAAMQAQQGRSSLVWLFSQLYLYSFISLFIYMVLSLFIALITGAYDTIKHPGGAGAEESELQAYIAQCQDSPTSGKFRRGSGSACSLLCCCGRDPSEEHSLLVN
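TRPML1-DL cells, Tet-induced overnight (~16 h, 37 degrees C), loaded 45-90 min at room temperature with Ca8 no-wash calcium dye plus quencher. FDSS fluorescence: 10 s baseline, compound pin-transfer, 110 s agonist read, then EC80 54-4 (4uM final) and 110 s antagonist read.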
D2 agonist = agonists of human D2 dopamine receptor (beta-arrestin). DiscoveRx PathHunter D2 beta-arrestin, luminescence, 90 min; 100% = 57 uM dopamine signal. activation, % (no concentration beside the values). 0.084% of 360,000 active; in the data active = activation above about 40%; inconclusive = about 15% to 40%; inactive = below about 15%; further: compound concentration not given in the record; the text of the record calls up to 30% inactive
Target sequence (P14416 whole entry, looked up): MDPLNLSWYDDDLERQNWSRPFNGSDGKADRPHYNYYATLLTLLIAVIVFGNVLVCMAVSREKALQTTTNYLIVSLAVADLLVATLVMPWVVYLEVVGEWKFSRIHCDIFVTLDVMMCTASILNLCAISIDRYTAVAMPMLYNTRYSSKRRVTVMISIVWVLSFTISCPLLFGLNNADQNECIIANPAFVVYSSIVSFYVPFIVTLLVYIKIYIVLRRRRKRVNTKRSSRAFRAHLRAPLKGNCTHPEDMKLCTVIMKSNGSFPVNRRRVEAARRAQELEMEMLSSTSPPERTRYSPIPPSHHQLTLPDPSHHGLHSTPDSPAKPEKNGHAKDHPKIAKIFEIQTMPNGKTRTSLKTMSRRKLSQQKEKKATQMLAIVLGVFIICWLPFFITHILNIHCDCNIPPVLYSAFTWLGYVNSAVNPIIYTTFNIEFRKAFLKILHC
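Agonist mode: compounds alone added to overnight-plated D2 PathHunter cells for 90 min at 37 C, with 57 uM final dopamine (EC100) defining full response. Beta-arrestin recruitment detected by chemiluminescent reagent, read after 1 h at ambient temperature.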
Six1-Eya2 inh = inhibitors of human Six1/Eya2 interaction; Q15475+O00167; activity change, % (concentration not given with the values); AlphaScreen GST-Six1/His-Eya2 binding, biochemical; active compounds read low; control for the full effect not named in the record; 0.56% of 360,000 active; in the data active = activity change below about -65%; inconclusive = about -30% to -65%; inactive = above about -30%; further: on the % scale 0 is the no-effect control and ±100 the full control effect
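Homogeneous AlphaScreen proximity assay pairing GST-Six1 with His-tagged Eya2 (added as 5X mix: 250 nM and 500 nM) in 50 mM Tris pH 8.0, 300 mM NaCl, 1 mM TCEP. Glutathione donor and nickel acceptor beads; 1 h, 37 °C, dark.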
CtBP-E1A blk = inhibitors of CtBP/E1A interaction. activity change, % (no concentration beside the values). 0.49% of 340,000 active. AID 651724. AlphaScreen GST-E1A/His-CtBP binding, 1536-well; active compounds read low; control for the full effect not named in the record; in the data active means activity change below about -65%; inconclusive means about -30% to -65%; inactive means above about -30%; further: on the % scale 0 is the no-effect control and ±100 the full control effect
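In 5 uL wells, 23 nL compound meets equimolar GST-E1A and His-CtBP (5X stock 125 nM each) for 2 h, 37 °C. Beads (5X, 50 ug/mL) then 1 h, 37 °C, dark.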
TRPML1 blocker = human mucolipin-1 channel inhibition; TRPML1-inducible cells, Ca2+ dye fluorescence, FDSS; active compounds read low; inhibition of EC80 agonist-evoked calcium signal; activity change, negative = inhibition, % (test concentration not listed); 0.02% of 390,000 active; AID 624415; in the data active means activity change below about -50%; inconclusive means about -30% to -50%; inactive means above about -30%;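 further: stimulus is agonist 54-4 at its EC80 concentration; on the % scale 0 is the no-effect control and ±100 the full control effect; compound concentration not given in the record; the text of the record puts the active cut at -80%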
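Calcium fluorescence in TRPML1-DL cells induced overnight with Tet: a 110 s read after compound pin addition, then a 110 s antagonist read after challenge with 54-4 at 4 uM final (EC80).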
* marks the source's active call; other numbers are inactive results; [ ] = another dose, or the depositor's remark.

`CN(C)S(=O)(=O)c1ccc(/C(O)=C2/C(=O)C(=O)N(Cc3cccnc3)C2c2cccs2)cc1` (stereo not given) gave PINK1 expr mod 4.4%, TRPML1 ag -0.4, D2 agonist -4.2, Six1-Eya2 inh -1, CtBP-E1A blk -20 and TRPML1 blocker 6.
Cc1nn(CC(=O)NC2CCS(=O)(=O)C2)c(C)c1S(=O)(=O)N(C)C (stereo not given) was read as PINK1 expr mod -1.3%, TRPML1 ag -0.6, D2 agonist -1.2, Six1-Eya2 inh 7, CtBP-E1A blk 16 and TRPML1 blocker -9.
`Cc1cc2c(cc3c(SCc4nc(-c5ccccc5)oc4C)nnc(C)n32)o1` gave PINK1 expr mod -0.9%, TRPML1 ag 0.2 and TRPML1 blocker 12.
For O=C(O)c1cc(NC(=O)c2ccc3c(c2)C(=O)N(Cc2cccnc2)C3=O)cc(C(=O)O)c1 the results were PINK1 expr mod 0.9%, TRPML1 ag 0.5, D2 agonist -2.1, Six1-Eya2 inh 2, CtBP-E1A blk 1 and TRPML1 blocker 14.
O=C1NC(=O)C(c2ccccc2)(C2CCCC2)N1 (stereo not given) was read as PINK1 expr mod 1.2%, TRPML1 ag 0.8, D2 agonist -1.9, Six1-Eya2 inh -7, CtBP-E1A blk -8 and TRPML1 blocker -3.
For C#CCOCCOCCOCCNc1nc(N2CCN(C(=O)[C@H](Cc3cc4ccccc4[nH]3)n3cc([C@@H](N)CC(C)C)nn3)CC2)nc(N2CCN(C(=O)[C@H](Cc3cc4ccccc4[nH]3)n3cc([C@@H](N)CC(C)C)nn3)CC2)n1 the results were PINK1 expr mod 7.7%, TRPML1 ag -0.3, D2 agonist -3.5, Six1-Eya2 inh -19, CtBP-E1A blk -26 and TRPML1 blocker -2.
CCc1c(C)nc2ncnn2c1N1CCC(C(=O)N2CCN(c3ccc(F)cc3)CC2)CC1 was read as PINK1 expr mod inconclusive, TRPML1 ag 2.0, D2 agonist -2.1, Six1-Eya2 inh 4, CtBP-E1A blk 1 and TRPML1 blocker 10.
C/C(Cn1nc([N+](=O)[O-])cc1C)=N\NC(=O)COc1ccccc1[N+](=O)[O-] was read as PINK1 expr mod 1.3%, TRPML1 ag 0.2, D2 agonist -3.2, Six1-Eya2 inh -1, CtBP-E1A blk -6 and TRPML1 blocker 25.
Screening Cc1ccc(/C=C/C(=O)N2CCN(S(=O)(=O)c3c(C)c(C)cc(C)c3C)CC2)o1 returned PINK1 expr mod 2.4%, TRPML1 ag -0.2, D2 agonist 2.3, Six1-Eya2 inh -18, CtBP-E1A blk -3 and TRPML1 blocker -12.
Cc1cccc(OCCOc2ccccc2C=C(C#N)C#N)c1 was read as PINK1 expr mod 10%, TRPML1 ag 3.1, D2 agonist -2.4, Six1-Eya2 inh 7, CtBP-E1A blk 3 and TRPML1 blocker 39.

Next part, starting with the last 2 of the part before.
Screening Cc1ccc(/C=C/C(=O)N2CCN(S(=O)(=O)c3c(C)c(C)cc(C)c3C)CC2)o1 returned PINK1 expr mod 2.4%, TRPML1 ag -0.2, D2 agonist 2.3, Six1-Eya2 inh -18, CtBP-E1A blk -3 and TRPML1 blocker -12.
Cc1cccc(OCCOc2ccccc2C=C(C#N)C#N)c1 was read as PINK1 expr mod 10%, TRPML1 ag 3.1, D2 agonist -2.4, Six1-Eya2 inh 7, CtBP-E1A blk 3 and TRPML1 blocker 39.
Screening COc1ccc(C(CNC(=O)COc2ccc(Cl)cc2C)N2CCCCC2)cc1 (stereo not given) returned PINK1 expr mod 0.1%, TRPML1 ag -0.8, D2 agonist -2.8, Six1-Eya2 inh 1, CtBP-E1A blk 1 and TRPML1 blocker 0.
For O=S(=O)(/N=C(/NS(=O)(=O)c1ccccc1)c1ccccc1)c1ccccc1 the results were PINK1 expr mod 0.6%, TRPML1 ag -0.4, D2 agonist -2.9, Six1-Eya2 inh 18, CtBP-E1A blk 3 and TRPML1 blocker 16.
`COc1ccc(NC(=O)CN2C(=O)NC(C)(c3ccc(C)cc3)C2=O)c([N+](=O)[O-])c1` (stereo not given) gave PINK1 expr mod 0.7%, TRPML1 ag -0.2, D2 agonist -0.3, Six1-Eya2 inh -24, CtBP-E1A blk -9 and TRPML1 blocker 16.
For CC(NC(=O)COC(=O)c1ccccc1SCC(=O)N1CCCC1)c1ccccc1 (stereo not given) the results were PINK1 expr mod -0.3%, TRPML1 ag -0.9, D2 agonist 0.0, Six1-Eya2 inh 4, CtBP-E1A blk 5 and TRPML1 blocker 11.
For Cc1ccc(NC=C(S(=O)(=O)c2ccccc2)S(=O)(=O)c2ccccc2)cc1 the results were PINK1 expr mod 6.0%, TRPML1 ag 0.5, D2 agonist -2.0, Six1-Eya2 inh -12, CtBP-E1A blk -2 and TRPML1 blocker 59.
Fc1ccc2[nH]c3c(N4CCN(c5ccccc5)CC4)ncnc3c2c1 was read as PINK1 expr mod 6.3%, TRPML1 ag 0.1, D2 agonist 7.3, Six1-Eya2 inh inconclusive, CtBP-E1A blk inconclusive and TRPML1 blocker 8.
`COc1ccccc1NC(=O)c1sc2nc(Cc3ccccc3)cc(C(F)(F)F)c2c1N` gave PINK1 expr mod 18%[38.3 µM], TRPML1 ag 1.0, D2 agonist -2.4, Six1-Eya2 inh 67, CtBP-E1A blk 49 and TRPML1 blocker -3.
O=C(c1cnc2c(c1)COc1ccccc1-2)c1ccccc1O was read as PINK1 expr mod -0.3%, TRPML1 ag 1.5 and TRPML1 blocker 29.
`CCCCC[C@H]1CCCCC[C@H](O)C[C@@H](O)[C@H](O)/C=C/C(=O)O1` gave PINK1 expr mod 3.2%, TRPML1 ag 0.5, Six1-Eya2 inh -10 and CtBP-E1A blk 3.
For CC1(C)N=C(N)N=C(N)N1c1ccc(F)cc1F the results were PINK1 expr mod 1.8%, TRPML1 ag -0.1, D2 agonist -2.9, Six1-Eya2 inh -6, CtBP-E1A blk -2 and TRPML1 blocker -6.
Screening COc1cc2c(cc1OC)CN(C(=O)c1sc(-c3cnccn3)nc1C)CC2 returned PINK1 expr mod 2.4%, TRPML1 ag -0.9, D2 agonist -4.4, Six1-Eya2 inh 3 and TRPML1 blocker 19.
For COc1cccc(C(=O)N(CN2CCCC2=O)c2cccc(Cl)c2)c1 the results were PINK1 expr mod -1.7%, TRPML1 ag 0.6, D2 agonist -2.0, Six1-Eya2 inh 4, CtBP-E1A blk 10 and TRPML1 blocker 38.
`Cc1c(C)n(C(=O)CN2CCN(c3ccccc3)CC2)c2ccccc12` gave PINK1 expr mod 1.6%, TRPML1 ag -0.5, D2 agonist -4.5, Six1-Eya2 inh -24, CtBP-E1A blk -16 and TRPML1 blocker -6.
For Cc1c(C)c2ccc(OCC(=O)Nc3ccccc3C(N)=O)cc2oc1=O the results were PINK1 expr mod 1.5%, D2 agonist 11, Six1-Eya2 inh 3 and CtBP-E1A blk -1.
O=C(Nc1ccc(N2CCCC2)cc1)c1ccc([N+](=O)[O-])cc1Cl was read as PINK1 expr mod 0.1%, TRPML1 ag 0.3, D2 agonist -0.2, Six1-Eya2 inh 18 and TRPML1 blocker -9.
`COc1ccc([C@@H]2[C@@H]3C(=O)N(C(C)(C)C)C(=O)[C@@H]3[C@]3(Cc4ccccc4)C(=O)N(c4ccc(OC)cc4)C(=O)N23)cc1` gave PINK1 expr mod 1.0%, TRPML1 ag -0.2, D2 agonist -1.4, Six1-Eya2 inh -3 and TRPML1 blocker 9.
For Nc1ccccc1C(=O)NC(=O)Nc1ccc(Oc2ncc(Br)cn2)c(Cl)c1 the results were PINK1 expr mod 2.9%, TRPML1 ag 2.3, D2 agonist 0.9, Six1-Eya2 inh 11, CtBP-E1A blk 1 and TRPML1 blocker -4.
For CN(C)CCNC(=O)C(=O)NCC1CCCN1S(=O)(=O)c1cccs1 (stereo not given) the results were PINK1 expr mod 1.2%, TRPML1 ag 0.8, D2 agonist -5.0, Six1-Eya2 inh 5, CtBP-E1A blk 3 and TRPML1 blocker -2.
O=C(CN(C(=O)CNS(=O)(=O)c1ccccc1)C1CCCC1)NCc1ccco1 was read as PINK1 expr mod -1.4%, TRPML1 ag -0.7, D2 agonist -0.8, Six1-Eya2 inh 1, CtBP-E1A blk 0 and TRPML1 blocker 30.
C/C(=N\NC(=O)CCc1c[nH]c2ccccc12)c1ccc([N+](=O)[O-])cc1 was read as PINK1 expr mod -0.9%, TRPML1 ag 0.2, D2 agonist 7.3, Six1-Eya2 inh -17, CtBP-E1A blk -10 and TRPML1 blocker -1.
`Cc1ccc(C(=O)Nc2ccccc2C(=O)O)cc1S(=O)(=O)NCc1ccccc1` gave PINK1 expr mod 0.9%, TRPML1 ag 1.8, D2 agonist 0.1, Six1-Eya2 inh -2, CtBP-E1A blk -6 and TRPML1 blocker 21.
Screening O=C(Nc1ccc2nc(SCC(=O)N3CCc4ccccc43)sc2c1)c1ccccc1F returned PINK1 expr mod 1.3%, TRPML1 ag -0.2 and TRPML1 blocker 3.
C=CCNCCCCOc1ccc(OCc2ccccc2)cc1 was read as PINK1 expr mod 11%, TRPML1 ag 1.1, D2 agonist -5.3, Six1-Eya2 inh -7 and TRPML1 blocker 11.
CCc1ccc(N2CC(C(=O)NCc3ccc4c(c3)OCO4)CC2=O)cc1 (stereo not given) was read as PINK1 expr mod 2.2%[38.3 µM], TRPML1 ag 0.3, D2 agonist 0.8, Six1-Eya2 inh 1, CtBP-E1A blk 1 and TRPML1 blocker -5.
For Cc1ccc(C)c(NC(=O)N2CCN(C)c3ncccc32)c1 the results were PINK1 expr mod 0.5%, TRPML1 ag 0.0 and TRPML1 blocker 36.
For Nc1nc2ccccc2n1S(=O)(=O)c1ccccc1 the results were PINK1 expr mod 3.8%, TRPML1 ag 1.7, D2 agonist 3.1, Six1-Eya2 inh 8, CtBP-E1A blk -9 and TRPML1 blocker 24.
Screening Cc1c(NC(=O)CSc2n[nH]c(=O)n2-c2ccccc2)c(=O)n(-c2ccccc2)n1C returned PINK1 expr mod -1.9%, TRPML1 ag -0.2, D2 agonist 3.8, Six1-Eya2 inh -1, CtBP-E1A blk -3 and TRPML1 blocker 8.
CCc1nnc(NC(=O)CC(CN(C)S(=O)(=O)c2ccccc2)c2ccccc2)s1 (stereo not given) was read as PINK1 expr mod 0.8%, TRPML1 ag 1.7, D2 agonist -0.3, Six1-Eya2 inh 0, CtBP-E1A blk -1 and TRPML1 blocker 7.
For CCCCN1CC(O)=C(c2nc(-c3ccc(Br)cc3)cs2)C1=N the results were PINK1 expr mod 0.3%, TRPML1 ag -0.2, D2 agonist 2.0, Six1-Eya2 inh -3, CtBP-E1A blk 4 and TRPML1 blocker 16.
For CN(c1ccc(C(=O)Nc2ccccc2Sc2ccccc2)cc1)S(C)(=O)=O the results were PINK1 expr mod 0.1%, TRPML1 ag 0.8, D2 agonist 1.6, Six1-Eya2 inh 22, CtBP-E1A blk 27 and TRPML1 blocker 16.
Screening CCOC(=O)c1ccccc1NC(=O)N1CCN2CCCCC2C1 (stereo not given) returned PINK1 expr mod -1.7%, TRPML1 ag 1.2 and TRPML1 blocker 11.
